Screens: PubChem BioAssay, several laboratories
T cruzi inh = blocks replication of Trypanosoma cruzi | T. cruzi beta-gal in NIH3T3, luminescence, 90 h | inhibition, % (test concentration not listed) | hit rate 1.4% among 300,000;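 active means mean inhibition across valid replicates above about 55%, limit read from the data; inconclusive means mean below that limit but half or more replicates reach it; inactive means mean below it, under half of replicates reach it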;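 further: signal also drops with host cell toxicity which is not excluded here; 0% = plate median of DMSO wells and 100% = zero luminescence signal; higher percent means less beta-gal luminescence so fewer parasites; stock transfer was 50 nL into about 50 µL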
Calb FLC = affects C. albicans growth with fluconazole; hit rate 0.57% among 300,000; growth inhibition, % (test concentration not listed); C. albicans CaCi-2 (fluconazole-resistant clinical isolate) + fluconazole, Alamar Blue growth, 48 h;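 active means most replicates above 75%; inconclusive means exactly half above 75%; inactive means most below 75%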;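 further: all wells also contain fluconazole at 8 µg/ml as a sub-toxic cotreatment; 0% = median of DMSO wells and 100% = median of geldanamycin control wells; wells of about 8 µL received 7.5 nL stock; the first replicate is given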
RanGTP-Imp inh = disruptors of Ran-importin-beta complex formation – biochemical, FRET, CFP-Ran, YFP-importin-beta, homogeneous, primary screen; hit rate 1.1% among 300,000; cell-free CFP-Ran/YFP-importin-beta FRET ratio; inhibition, % (no concentration beside the values); AID 2216;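 active means most replicates above 15%; inconclusive means exactly half above 15%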;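 further: 0% = DMSO wells and 100% = Ran loaded with GDP instead of GTP; wells of about 40 µL received 100 nL stock; the first replicate is given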
LANA-H2A inh = blocks KSHV LANA binding to histone H2A/H2B. Q9QR71. hit rate 0.6% among 320,000. cell-free LANA-H2A/H2B peptide, fluorescence polarization. inhibition, % (test concentration not listed). AID 2629; in the data active means inhibition mostly above about 10%, no sharp cut-off; inactive means mostly below about 6.7%;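 further: stock transfer was 7.5 nL into about 10 µL; 0% = median of vehicle wells and 100% = median of positive control wells; one replicate is shown; the record names a cut of 25% in any replicate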
Target sequence (Q9QR71 whole entry, looked up): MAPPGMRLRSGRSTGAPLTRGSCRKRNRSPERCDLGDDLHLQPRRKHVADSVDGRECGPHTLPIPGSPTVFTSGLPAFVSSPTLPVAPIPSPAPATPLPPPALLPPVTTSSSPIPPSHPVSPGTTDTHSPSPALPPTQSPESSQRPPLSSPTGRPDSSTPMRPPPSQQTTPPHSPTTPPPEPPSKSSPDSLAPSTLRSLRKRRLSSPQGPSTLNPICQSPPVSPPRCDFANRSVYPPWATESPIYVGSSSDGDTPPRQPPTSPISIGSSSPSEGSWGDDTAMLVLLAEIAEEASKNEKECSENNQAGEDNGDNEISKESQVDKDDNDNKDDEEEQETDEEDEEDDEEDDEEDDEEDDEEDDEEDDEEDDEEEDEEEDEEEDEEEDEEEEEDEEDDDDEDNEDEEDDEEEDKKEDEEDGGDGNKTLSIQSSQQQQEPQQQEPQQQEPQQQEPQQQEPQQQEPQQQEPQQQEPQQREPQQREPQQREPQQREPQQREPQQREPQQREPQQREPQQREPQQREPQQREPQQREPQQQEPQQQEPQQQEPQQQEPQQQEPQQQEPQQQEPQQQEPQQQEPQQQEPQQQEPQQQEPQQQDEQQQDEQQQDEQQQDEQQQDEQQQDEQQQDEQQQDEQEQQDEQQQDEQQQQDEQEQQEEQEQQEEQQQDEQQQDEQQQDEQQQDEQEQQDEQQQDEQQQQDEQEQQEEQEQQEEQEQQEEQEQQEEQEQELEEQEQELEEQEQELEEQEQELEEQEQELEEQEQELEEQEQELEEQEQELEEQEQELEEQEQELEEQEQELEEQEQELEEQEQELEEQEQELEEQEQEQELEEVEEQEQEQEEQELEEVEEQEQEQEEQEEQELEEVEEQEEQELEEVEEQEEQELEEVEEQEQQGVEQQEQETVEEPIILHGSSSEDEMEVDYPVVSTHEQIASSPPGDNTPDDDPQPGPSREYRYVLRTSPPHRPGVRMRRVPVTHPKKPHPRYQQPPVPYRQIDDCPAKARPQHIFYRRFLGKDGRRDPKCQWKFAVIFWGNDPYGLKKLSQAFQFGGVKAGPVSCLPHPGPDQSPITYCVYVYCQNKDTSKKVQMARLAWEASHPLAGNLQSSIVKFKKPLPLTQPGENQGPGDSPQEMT
UCH37 inh = blocks the human deubiquitinase UCH37 | purified proteasome/UCH37, Ub-AMC cleavage fluorescence | inhibition, % (test concentration not listed) | hit rate 0.33% among 330,000 | AID 588478;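 active means mean of two replicates above 20%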;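 further: 0% = compound-free wells with enzyme and 100% = wells lacking proteasome; stock transfer was 100 nL into about 20 µL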
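Reagent: Ub-AMC substrate; assay system: Proteasome-associated human UCH37 deubiquitinase; controls: no-proteasome and no-compound wells; read-out: % inhibition of Ub-AMC cleavage fluorescence; timing: 30 min preincubation with enzyme, 25 min cleavage at room temperature; signal: AMC fluorescence from Ub-AMC cleavage, excitation 355 nm, emission 460 nm; buffer or medium: Tris-HCl pH 7.4 plus ovalbumin, ATP-MgCl2, DTT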
B2AR ag = human beta-2 adrenergic receptor agonism by FAP. P07550. Am2.2-beta2AR cells, FAP receptor internalization, flow cytometry; reference of the scale not given here. response, % (no concentration beside the values). hit rate 0.43% among 340,000;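 active means response above a set limit, near 3 SD of response in nonfluorescent compounds, cut at about 42% in these data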;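 further: stock transfer was 100 nL into about 11 µL; a reference agonist was the positive control; negative values mostly stem from fluorescent compounds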
Bfl-1 A1 inh = inhibitors of the anti-apoptotic protein A1, read as caspase activation; MEF A1-2A-BIM cells, Caspase-Glo 3/7 luminescence, 3 h; percent of clofoctol response, vehicle zero; caspase activation, % (test concentration not listed); hit rate 0.066% among 330,000; AID 2462;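 active means over half of replicate activation scores above 10%, or exactly half above 10 with the replicate mean above 10; inconclusive means replicate mean below 10 yet half the replicates above 10; inactive means over half of replicates below 10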;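 further: wells of about 30 µL received 50 nL stock; many hits fall short of the cut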
Beta cell apopt = blocks beta cell apoptosis | hit rate 0.8% among 300,000 | AID 435005 | protection from apoptosis, % (concentration not given with the values) | INS-1E cytokine-induced death, ATP luminescence, 48 h; percent of positive-control rescue, neutral wells zero;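 active means all replicates at 75% or more, or half of them and the mean; inconclusive means half reach 75% but not the mean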;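 further: 0% = cytokine-treated negative control wells and 100% = positive control rescue; higher means more ATP so stronger rescue from cytokine killing; wells of about 40 µL received 100 nL stock; the first replicate is given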
Numbers without * were called inactive; ? = inconclusive; . = no result given.

SMILES	T cruzi inh	Calb FLC	RanGTP-Imp inh	LANA-H2A inh	UCH37 inh	B2AR ag	Bfl-1 A1 inh	Beta cell apopt
O=S(=O)(c1ccc2ccccc2c1)N1CCNCC1	3.1	11.8	1.9	-0.4	-1.2	4.0	0.5	-4.4
O=C(Nc1ccc(F)c(F)c1)c1ccc(F)c(S(=O)(=O)N2CCOCC2)c1	-9.9	1.8	-1.3	-6.1	.	.	-1.0	-3.9
Cc1ccc(CC2CC(=O)N(c3cc(C)ccc3C)C2=O)cc1 (stereo not given)	-8.8	-16.8	3.5	6.5	4.3	-2.8	-0.2	-5.3
CS(=O)(=O)c1cnc(-c2ccccc2)nc1Sc1ccc(F)cc1	-1.3	-0.3	0.5	-3.4	3.7	-3.2	1.6	.
CCOc1ccc(C(C(=O)NC(C)(C)C)N(CCOC)C(=O)CCC(=O)Nc2ccccn2)cc1 (stereo not given)	-1.4	6.1	2.7	-3.7	-1.1	-7.5	0.9	-6.1
O=S(=O)(c1ccc(-c2csc(Nc3ccc(Br)cc3)n2)cc1)N1CCCC1	30.6	1.5	-0.6	3.3	-49.1	1.2	-0.2	11.0
O=C(NCc1ccc(Cl)cc1)c1cc2c(s1)CS(=O)(=O)C2	11.3	10.2	5.3	6.6	1.1	-0.8	-0.4	-4.0
O=C(Cc1csc(NC(=O)Nc2ccc(Cl)cc2)n1)NCc1ccccn1	?	-1.0	?	-1.1	0.6	3.1	0.1	3.7
COC(=O)Cc1ccc(NC(=S)N2CCN(c3ccccn3)CC2)cc1	-7.0	0.8	4.7	-8.7	4.2	0.5	-0.1	-0.4
CSc1ccc(S(=O)(=O)N2CCC(C(=O)NCc3cccnc3)CC2)cc1	8.8	0.7	0.8	-4.9	0.4	-3.6	0.2	-0.1
O=C(c1cc(COc2ccc(F)cc2Cl)on1)N1CCC(c2ccncc2)CC1	39.3	25.9	-0.6	8.1	3.0	-10.9	-0.4	9.4
COc1ccccc1N1CCN(C(=O)C(CC(C)C)NC(=O)C2CCCCC2)CC1 (stereo not given)	0.3	-2.1	-4.4	-0.3	4.9	-5.9	-0.2	-1.0
Cc1cc(C)cc(N(C(=O)CNC(=O)c2ccco2)C(C(=O)NC2CCCC2)c2ccncc2)c1 (stereo not given)	2.7	-13.7	-3.0	16.0	2.9	-4.5	0.2	-4.2
O=C(COc1ccc(Cl)cc1)Nc1ccc2c(c1)OCO2	-0.9	-12.9	-3.9	-5.9	1.9	-1.1	0.1	5.8
CCCCN(Cc1cc2cc(OC)ccc2[nH]c1=O)S(=O)(=O)c1ccc(C)cc1	25.2	0.0	6.4	-0.3	-9.5	4.6	-0.1	4.9
c1ccc(C(c2ccccc2)c2ccn[nH]2)cc1	19.5	8.2	2.3	1.4	5.1	-2.5	-0.4	-0.6
COc1cc(/C=C/C(=O)OC[C@H]2O[C@H](OC3(CO)OC(CO)C(O)C3O)[C@H](O)[C@@H](O)[C@@H]2O)ccc1O (stereo not given in full)	.	.	.	-5.0	0.9	-5.3	-0.5	-1.1
COc1ccc(/C=C/C(=O)OCC(=O)NCc2ccco2)c(OC)c1	2.2	6.6	-4.4	4.2	-4.1	-4.8	-0.5	-1.7
CC(=O)Nc1cccc(OCCCNC(=O)C2CCC2)c1	-16.5	-6.5	7.9	-0.1	4.0	0.1	0.0	-2.0
Clc1ccc(OCCN2CCCCC2)cc1Cl	40.8	0.0	-3.6	2.1	5.9	-8.8	1.1	-0.2
CCOC(=O)C1CCCN(S(=O)(=O)CCNC(=O)c2ccccc2)C1 (stereo not given)	-13.2	-5.9	7.1	-1.6	2.7	11.7	0.6	.
c1ccc(-c2csc(N3CCOCC3)n2)cc1	-11.2	1.2	-0.5	3.6	0.6	0.6	-1.7	-3.1
O=C1CN(C(=O)COC(=O)C2CC(=O)N(Cc3ccco3)C2)c2ccccc2N1 (stereo not given)	-5.6	11.4	1.9	5.4	4.3	9.6	-0.3	-4.6
Nc1nnc(/C=C/c2ccccc2)s1	7.4	-6.5	2.6	0.6	-10.6	1.5	-0.1	-0.1
O=C(CSc1nc(=O)n(CCCN2CCOCC2)c2c1CCCC2)Nc1ccc(Cl)cc1	7.9	11.2	-1.3	7.1	4.9	7.7	-0.6	4.4
O=C(CCC(F)(F)F)N1CCCC(CO)(CCc2ccccc2)C1 (stereo not given)	8.1	0.7	0.2	1.3	3.8	2.8	0.5	0.4
O=C(CSc1nccn1Cc1ccc(F)cc1)NC1CCCC1	0.9	-6.2	3.1	-9.6	1.2	-10.5	-0.1	-4.5
O=C(c1ccc(Cl)cc1)C1CCN(C(=O)c2ccc(F)cc2)CC1	-13.0	8.1	1.7	-4.0	0.0	7.2	-1.0	2.8
Cc1coc2c(C)c3oc(=O)c(CC(=O)N[C@@H](CC(C)C)C(=O)O)c(C)c3cc12	-8.2	-2.9	3.7	0.3	-72.5	-0.9	1.7	-2.4
CCOC(=O)c1c(NC(=O)CCCC(=O)O)sc2c1CCC2	0.7	13.8	-1.2	-5.0	.	-7.2	-0.5	0.4
CCCc1ccc(OCc2ccccc2)c2c(=O)cc(C(=O)OCC)oc12	-16.2	-2.7	2.5	3.0	-0.1	6.8	-0.7	2.4
Cc1ccccc1NC(=O)CC(C)S(=O)(=O)c1ccc2c(c1)NC(=O)CO2 (stereo not given)	-14.3	-4.1	0.7	5.8	1.7	2.6	-0.6	-0.5
NC(=O)c1ccccc1-c1nc(-c2ccccc2)no1	-14.8	-21.7	-2.4	-0.2	5.9	-4.7	-2.5	-0.5
COc1ccc2c(c1OC)C(=O)OC2N1C(=O)CC[C@H]1C(=O)Nc1ccc2c(c1)OCO2 (stereo not given in full)	0.7	-0.2	7.0	1.2	2.3	-0.2	0.2	.
COc1ccccc1CCNC(=O)C(=O)NCC1OCCN1S(=O)(=O)c1ccc([N+](=O)[O-])cc1 (stereo not given)	32.6	-7.0	-2.9	5.3	5.7	-18.9	1.1	35.8
COCCn1c(COc2cccc(OC)c2)nnc1SCC(=O)NC1CCCCC1	-4.0	-5.0	-0.8	-0.4	-0.3	1.6	-0.4	-4.3
CC(NS(=O)(=O)c1ccc2c(c1)c(=O)n(C)c(=O)n2C)C(=O)NC1CCCCC1 (stereo not given)	-31.5	2.0	2.2	-0.5	3.5	2.6	-0.7	-6.5
O=C(/C=C(O)/C=C/c1ccc(O)cc1)/C=C/c1ccc(O)cc1	.	.	.	3.2	-7.6	-36.6	-0.3	0.1
Cc1[nH]c2ccccc2c1/C=N/NC(=S)NC(C)C	4.3	0.0	?	-0.5	.	2.5	-3.0	-7.7
Cc1ccccc1NC(=O)NC1(C(=O)N2CCOCC2)CCCCC1	-9.2	-5.2	-0.1	-1.2	0.4	4.0	0.4	-0.8
CC(=O)c1ccc(N2CCN(CC(=O)N(CC(C)C)c3c(N)n(CC(C)C)c(=O)[nH]c3=O)CC2)cc1	5.0	?	2.8	0.8	2.9	2.8	0.1	0.0
COc1ccc(-c2cc(C(F)(F)F)n3nc(C(=O)N4CCN5CCCC5C4)cc3n2)cc1OC (stereo not given)	5.5	-5.1	0.7	-1.2	-1.1	-0.3	0.7	.
O=C(c1ccc2ncsc2c1)N1CCN(c2ccccc2Cl)CC1	-6.5	-3.8	0.8	-1.9	3.5	6.6	0.1	1.2
CN(C)c1ccc(N=Nc2ccccc2C(=O)OCC(=O)N(C)c2ccccc2)cc1	14.7	29.3	-5.7	-5.5	8.3	8.3	-0.7	3.9
Cc1cc(C)c2[nH]c(=O)c(CN(CC3CCCO3)S(=O)(=O)c3ccc4c(c3)OCCO4)cc2c1 (stereo not given)	25.3	-19.1	?	-1.7	-7.1	-3.8	0.5	-6.9
CCCC1=C(C(=O)OCC)C(c2ccc(F)cc2)n2ncnc2N1 (stereo not given)	-12.7	5.2	3.3	2.5	-0.3	-4.3	-0.5	-5.8
COc1cccc(NC(=O)c2nn(C)c3c2CS(=O)(=O)c2ccccc2-3)c1	5.7	-15.6	1.3	0.4	-0.4	-0.8	0.8	-0.1
CCOC(=O)[C@H]1[C@H]2COc3ccc(OC)cc3[C@@H]2N2C(=O)c3cc(OC)ccc3NC(=O)[C@@]12C	.	.	.	-6.7	1.9	0.8	0.5	-0.7
COc1ccc(N(C(=O)c2cccnc2)S(=O)(=O)c2ccc3c(c2)n(C)c(=O)n3C)cc1	-10.4	1.3	4.0	-1.0	2.9	18.6	0.1	-8.5
Cc1ccc(NC(=O)c2nc[nH]c2C(=O)NCCCNC(=O)c2[nH]cnc2C(=O)Nc2ccc(C)cc2)cc1	.	.	.	2.5	.	8.7	0.4	37.9
C#CCCCCCCCCC(=O)NCCCC	10.5	-19.7	-0.5	1.6	2.2	1.7	-0.5	.
Cc1cc(C)c(C)c(S(=O)(=O)N2CCN(C(=O)c3ccncc3)CC2)c1C	.	.	.	-1.2	2.8	-2.4	0.5	-3.6
N#CC(C(=O)Nc1ccccc1)=C1CCCCC1	-14.6	1.9	1.8	-1.5	5.1	-10.1	0.0	-1.1
CSc1sc(C(=O)NN)c2c1C(O)CCC2 (stereo not given)	-10.8	0.7	-6.3	-1.2	3.1	-1.9	-0.1	-0.3
O=C(NCCCn1ccnc1)C1CC(c2cccc(Br)c2)=NO1 (stereo not given)	-0.2	-2.2	-2.0	-1.9	0.2	0.3	-0.4	-5.1
Cc1ccc(Cl)cc1NC(=O)CN1CCN(C(=O)C2CCCO2)CC1 (stereo not given)	-8.9	1.3	3.2	3.0	1.9	12.2	0.3	-3.6
Cc1ccc(S(=O)(=O)N2CCOCC2)cc1NC(=O)COC(=O)c1cc(=O)[nH]c2ccccc12	-9.9	42.3	26.3*	-8.6	-17.9	-1.3	0.5	-10.0
O=C(c1ccc2ccccc2c1)N1CCN(S(=O)(=O)/C=C/c2ccccc2)CC1	55.5*	-18.6	3.3	1.4	2.1	3.9	1.7	-3.0
CCC(C)NCC(=O)Nc1cc(S(=O)(=O)N(CC)c2ccccc2)ccc1Cl (stereo not given)	30.3	-4.2	3.5	2.8	1.3	-4.3	0.7	4.4
O=C(CSc1nc2ccccc2o1)N1CCOCC1	-13.4	2.2	1.4	2.9	-0.5	-2.4	-0.8	2.0

The listing continues:
SMILES	T cruzi inh	Calb FLC	RanGTP-Imp inh	LANA-H2A inh	UCH37 inh	B2AR ag	Bfl-1 A1 inh	Beta cell apopt
c1ccc(Nc2nc(-c3cccs3)cs2)nc1	14.7	-3.2	1.5	2.3	0.9	11.7	0.6	5.5
CN(C)c1cccc(C(=O)NNC(=O)NC2CCCCC2)c1	-12.7	-14.0	-2.8	2.2	0.4	2.8	1.3	-3.2
COC(=O)/C=c1/s/c(=C(/C#N)C(=O)NCc2ccccc2)n(-c2ccccc2)c1=O	25.5	2.3	1.0	-2.1	.	-0.8	-0.1	-7.7
CC1CCN(C(=O)CSc2nnc3c(n2)[nH]c2ccc(F)cc23)CC1	5.4	1.8	-1.4	3.3	1.2	-10.2	-0.1	2.9
